Screening data as filed in PubChem.
PKD1 inh = PKD1 (human) kinase inhibition; inhibition, %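 (about 10 µM by stock and volumes)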; hit rate 0.056% among 200,000; PKD1 kinase fluorescence polarization assay; Q15139;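 active = inhibition of 50% or more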;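 note: controls were vehicle for no effect and a reference inhibitor for full effect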
Target sequence (Q15139 whole entry, looked up): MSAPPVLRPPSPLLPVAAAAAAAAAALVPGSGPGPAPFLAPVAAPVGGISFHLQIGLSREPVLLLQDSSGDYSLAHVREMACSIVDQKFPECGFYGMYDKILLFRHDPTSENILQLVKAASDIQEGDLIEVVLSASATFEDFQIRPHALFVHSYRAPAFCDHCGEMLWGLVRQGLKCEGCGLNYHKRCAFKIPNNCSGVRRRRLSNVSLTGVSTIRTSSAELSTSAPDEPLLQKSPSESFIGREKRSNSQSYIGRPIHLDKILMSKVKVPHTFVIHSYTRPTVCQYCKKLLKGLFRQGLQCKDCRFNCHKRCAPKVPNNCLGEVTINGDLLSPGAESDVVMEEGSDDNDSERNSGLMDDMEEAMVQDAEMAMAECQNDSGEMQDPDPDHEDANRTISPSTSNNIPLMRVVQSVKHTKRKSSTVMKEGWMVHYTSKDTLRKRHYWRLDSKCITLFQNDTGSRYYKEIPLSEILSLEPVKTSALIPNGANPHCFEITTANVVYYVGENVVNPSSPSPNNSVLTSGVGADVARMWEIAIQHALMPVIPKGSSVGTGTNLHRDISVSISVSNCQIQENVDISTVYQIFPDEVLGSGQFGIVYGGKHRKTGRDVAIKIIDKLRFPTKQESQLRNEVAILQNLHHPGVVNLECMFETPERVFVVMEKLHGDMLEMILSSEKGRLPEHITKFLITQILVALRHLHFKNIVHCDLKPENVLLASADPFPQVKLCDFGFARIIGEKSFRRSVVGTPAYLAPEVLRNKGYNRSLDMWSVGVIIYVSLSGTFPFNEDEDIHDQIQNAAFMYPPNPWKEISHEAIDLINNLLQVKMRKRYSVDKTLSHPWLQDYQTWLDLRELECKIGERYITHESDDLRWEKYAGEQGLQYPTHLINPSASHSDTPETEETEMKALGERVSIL
HSV augment = HSV replication enhancement; HSV replication augmentation in cells, fold increase; maximum fold increase; hit rate 0.005% among 220,000; AID 1956;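 active = peak rise of 1.5-fold or more in the series; tested in PC3 cells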;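 note: first round at 10 µM; read as green reporter fluorescence; hits show the peak of a series up to 25 µM; 1 = signal of infected wells without compound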
RGS16-Gao = regulators of human RGS16-Galphao interaction; binding response (% of control), % at 10 µM; bead-based flow cytometry RGS16-Galphao binding, fluorescence; actives lie on both sides; hit rate 0.38% among 220,000; O15492+P09471;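 active = below 25% or above 175%, edge rows of some plates excepted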;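 note: Galphao activated by GDP with aluminum fluoride before binding; 100% = wells without compound and 0% = beads without RGS; some results beyond the cut were filed as inactive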
Insulin prom inh = TRM-6 insulin promoter activity inhibition. TRM-6 cells (human fetal islet line), insulin promoter-eGFP reporter, imaging; reporter expression induced with tamoxifen. inhibition, % at 2 µM. AID 1273. hit rate 0.9% among 130,000;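 active = inhibition above the mean plus 3 SD, with well images judged a real hit on visual review, cut at about 60% in these data, passing the limit was not always enough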
GALR2 agonist = GALR2 (human) receptor agonism. O43603. GALR2-expressing cells, agonist activation read-out. activation, %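 (tested at 5 µM)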. hit rate 0.48% among 140,000. AID 803;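 active = above mean plus 3 SD of all compounds, about 5% in these data, not always enough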;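 note: 0% = vehicle buffer wells and 100% = reference agonist at full effect; tested in CHO reporter cells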
Insulin prom inh cell count = also measured in Insulin prom inh; calls as there; normalized cell count, %; measured here: cell count, toxicity; reference of the scale not given here;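 cells exposed to compound for 48 h; stained nuclei by imaging scaled within each plate; lower means fewer cells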
HSV augment primary fold = further read-out of HSV augment, marked with its call; fold increase; compound at 10 µM; measured here: primary screen fold increase 10 uM; tested in PC3 cells;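 GFP signal in the first replicate; 1 = infected wells without compound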
Starred values were filed as active, the others as inactive; i = inactive; . = not tested or not shown. Outcome played no part in choosing rows (roughly 1.3% active in at least one column).

structure	PKD1 inh	HSV augment	HSV augment primary fold	RGS16-Gao	Insulin prom inh	Insulin prom inh cell count	GALR2 agonist
CCCCCCOC(=O)C(C#N)c1nc2ccccc2nc1N1CCN(C)CC1 (configuration not stated)	4	i	0.82	91	-81	75	0.2
COc1cc(C2CC(=O)N(c3ccc(C)cc3)C(=O)C2)cc(OC)c1OC	.	i	0.75	101	.	.	.
O=C1COc2ccc(S(=O)(=O)Nc3ccc4c(c3)OCO4)cc2N1	1	i	1	109	.	.	.
CCOC(=O)C(C(=O)OCC)C(Nc1ccccc1)c1ccccc1 (configuration not stated)	-6	i	0.86	9.4*	-3	61	-0.1
O=C(O)C1C(c2ccccc2)C(C(=O)OCCCO)C1c1ccccc1 (configuration not stated)	-15	i	0.84	100	21	65	-1.9
COc1cc(CC(=O)OCC(=O)N2CC(=O)Nc3ccccc32)cc(OC)c1OC	3	i	0.93	102	.	.	.
O=C(NCc1cccs1)c1cnc2ccccn2c1=O	17	i	1.1	99	.	.	-0.1
O=C(NNc1nc(-c2ccc(Cl)cc2)cs1)c1ccco1	11	i	0.93	109	-37	73	-1.1
COc1ccc(CCN2C(=O)/C(=C\c3ccco3)SC2=S)cc1OC	-4	i	1.1	100	.	.	.
CCOC(=O)c1ccc(NC(=O)N2CCN(Cc3ccccc3)CC2)cc1	-5	i	1.1	100	47	106	.
CCCn1ncc(CN2CCC(N3CCC(C(=O)N4CCOCC4)CC3)CC2)c1C	3	i	1	98	.	.	.
CCc1c(C)nc2[nH]nc(-c3ccccc3C)n2c1=O	-4	i	0.94	107	24	97	-0.8
CCC12CC3CC(C1)CC(C(=O)O)(C3)C2	4	i	1.1	43	.	.	0.5
Cc1cc(C)nc(SCCC(=O)Nc2ccccc2)n1	0	i	0.89	108	5	136	-1.1
NNC(=O)c1ccccc1OCc1ccccc1	.	i	0.99	106	.	.	.
CCc1ccc(N2C(=O)CC(NNc3nc4ccccc4s3)C2=O)cc1 (configuration not stated)	8	i	0.95	99	.	.	-2.9
Cc1onc(-c2ccccc2Cl)c1C(=O)Nc1cccc(-c2nc3ncccn3c2C)c1	0	.	.	103	82*	118*	0.8
CCOC(=O)c1c(C)[nH]c(C)c1C(=O)COC(=O)C1CCCN1S(=O)(=O)c1ccccc1F (configuration not stated)	4	.	.	107	.	.	-2.4
O=C1CCCN1C(=O)CCC(=O)N1CCCC1=O	3	i	0.96	105	-14	141	-3.4
NCCSc1c(-c2ccccc2)[nH]c2ccccc12	12	i	0.94	-3.3*	.	.	.
COCCn1c(SCC(=O)Nc2ccccc2)nc2c(oc3ccccc32)c1=O	-1	i	0.95	96	4	70	.
O=C1CS/C(=N\C(=O)N2c3ccccc3Sc3ccccc32)N1	-6	i	1	93	68	100	0.3
CCCCCCCC(=O)N/N=C/c1ccc(Br)cc1	-2	i	0.89	106	20	90	-2.6
COc1ccc(C(=O)N=C2CCC(C#N)=C3c4cc(OC)c(OC)cc4CCN23)cc1	-2	i	1	104	-13	118	3.2
NC(=NCCc1ccc(Cl)cc1)NS(=O)(=O)c1ccc(F)cc1	-8	i	1.1	87	.	.	-1.0
O=C(NCc1cccnc1)C(=O)Nc1ccc2c(c1)OCO2	-1	i	1	96	.	.	.
COc1ccc(-c2nc(CS(=O)(=O)CC(=O)NCCc3cc(OC)ccc3OC)c(C)o2)cc1	4	i	0.95	98	-21	96	-2.6
COc1ccc(C(=O)Oc2cc(C)[nH]c(=O)c2[N+](=O)[O-])cc1	8	.	.	105	32	83	-1.8
N#CC(C#N)=C1C=CC=CN1/C(=C\c1ccco1)C(=O)c1ccccc1	12	i	1.1	99	.	.	0.5
COC(=O)N=Nc1c(O)[nH]c2ccc(Br)cc12	.	i	0.97	96	.	.	.
Cc1cc(C)nc(SCc2ccc(C(=O)NNC(=O)Nc3cccc(Cl)c3)cc2)n1	-3	i	0.93	114	-25	122	0.1
O=C1Nc2ccccc2N(O)N1c1ccc(Cl)cc1	-6	i	1.1	101	-11	69	.
CS(=O)(=O)c1ccc2nc(NC(=O)Oc3ccccc3)sc2c1	9	i	1.1	99	.	.	-2.2
COc1ccc2c(c1)CC/C2=N\OC(=O)c1ccccc1C	-8	i	0.98	99	-43	95	.
COc1cc(CN2CCCC(CO)(Cc3ccccc3C)C2)cc2c1OCO2 (configuration not stated)	-4	i	0.96	107	.	.	.
c1ccc2c(-c3nc(C4CCCCC4)no3)cc(-c3ccncc3)nc2c1	-7	i	1.1	101	56	123	-1.7
Cc1nc(N(C)C)c2sc(=S)n(C)c2n1	-9	i	0.92	106	.	.	-0.8
C=CCn1c(SCC(=O)N2c3ccccc3Sc3ccccc32)nnc1-c1ccco1	.	i	1	99	.	.	.
COc1ccc(/C=N/NC(=O)c2cccc(C(F)(F)F)c2)cc1	-6	i	0.88	100	0	108	.
Cn1c(/C(C#N)=C/Nc2ccccn2)nc2ccccc21	-13	i	1	98	11	62	-1.0
COc1ccc(CNC(=O)c2cc(-c3ccccc3OC)on2)cc1	7	i	1	104	.	.	-0.5
CCCCc1nc2ccc(S(=O)(=O)O)cc2[nH]1	.	i	1.1	101	.	.	.
CC(C)c1ccc(-c2c(C#N)c(N)nc(SCC(=O)N3CCCCCC3)c2C#N)cc1	-1	i	0.89	95	7	95	-1.0
COc1ccc2cc(C(c3nnnn3C3CCCC3)N3CCOCC3)c3nnnn3c2c1 (configuration not stated)	-1	i	0.82	104	.	.	.
CCCCCOc1ccccc1C(=O)NCCCCCC(=O)O	.	i	1	100	.	.	.
CCOc1cc(CNCCO)ccc1OCC(=O)NC(C)(C)C	11	i	0.87	95	.	.	.
Cc1ccc(N2C(=O)[C@@H]3[C@H](C2=O)[C@H]2C=CC=NN2[C@@H]3C(=O)Nc2ccc(Cl)cc2)cc1	-4	i	0.94	98	12	129	-1.6
CCCc1nc(SCC(=O)Nc2nnc(CC)s2)c2c(C)c(C)sc2n1	10	i	1	109	-46	130	-1.9
COC(=O)c1sc(NC(=O)C(C)c2ccccc2)nc1C (configuration not stated)	-4	i	0.9	101	0	117	-0.9
COc1cc(OC)c(C#N)c(S(=O)Cc2ccccc2)c1 (configuration not stated)	-6	i	0.96	104	16	101	0.5

Additional records.
structure	PKD1 inh	HSV augment	HSV augment primary fold	RGS16-Gao	Insulin prom inh	Insulin prom inh cell count	GALR2 agonist
c1nc2sc3c(c2c2nnnn12)CCC3	2	i	0.79	105	33	103	-1.4
C#CCOCCOCCOCCNc1nc(N2CCN(C(=O)C(Cc3cc4ccccc4[nH]3)n3cc(C(N)C(C)CC)nn3)CC2)nc(N2CCN(C(=O)C(Cc3cc4ccccc4[nH]3)n3cc(C(N)C(C)CC)nn3)CC2)n1 (configuration not stated)	-5	.	.	102	.	.	.
O=C(C1CCCN(Cc2cccnc2)C1)N1CCCCC1 (configuration not stated)	6	i	0.89	101	.	.	-3.2
CC1CCCC(C)N1/N=C/C=C/c1ccccc1[N+](=O)[O-] (configuration not stated)	-1	i	0.94	98	.	.	.
Fc1cc(F)c2nc(N3CCCCC3)sc2c1	-18	i	0.82	99	.	.	-2.3
COC(=O)c1sc2cc(C(F)(F)F)cnc2c1-c1ccccc1	-12	i	0.94	93	-6	165	-1.5
COc1ccc(CN2CN(S(=O)(=O)c3cccs3)c3nc4ccccc4nc32)cc1	.	i	0.97	96	.	.	.
CCOC(=O)c1sc(NC(=O)C2C3C=CC(C3)C2C(=O)O)nc1C (configuration not stated)	7	i	1.1	103	-21	49	-2.0
Cc1ccc(Cn2c(=N)n(CC(O)c3ccco3)c3ccccc32)cc1 (configuration not stated)	-6	.	.	86	.	.	-1.8
Cc1cc(S(=O)(=O)N2CCN(c3ccccc3O)CC2)c(C)s1	-9	i	1.1	103	.	.	-1.6
CNC(=O)c1c(Br)cnn1-c1ccc(C)cc1	-1	i	0.94	100	.	.	.
Cc1ccc(-n2nc(C)c(/C=N/NC(=O)c3cccs3)c2Cl)cc1	-6	i	0.57	107	.	.	3.1
CCn1c(SCC(=O)OC)nc2sc3c(c2c1=O)CCC3	7	i	1.2	102	0	88	-1.0
Cc1cc(=O)[nH]c(SCC(=O)NCc2ccco2)n1	-3	i	1	87	4	101	-0.8
N#Cc1cccc(NC(=O)COC(=O)c2ccccc2C(=O)c2ccc(Cl)c([N+](=O)[O-])c2)c1	-7	i	0.53	97	20	94	-1.3
CCOc1ccc(C(CC(=O)O)NC(=O)COc2ccccc2)cc1 (configuration not stated)	2	i	1	103	42	108	-1.1
Cn1c(COc2ccccc2)nnc1SCCN1CCOCC1	-8	i	0.86	50	.	.	-1.8
O=C(CSc1nc(C2CCCCC2)nc2ccccc12)N1CCCC1	2	i	0.75	101	.	.	.
CCNC(=O)c1c(O)c2ccccc2[nH]c1=O	-5	i	0.88	103	15	71	-0.7
O=C(NCCN1CCOCC1)c1ccc(CS(=O)(=O)c2c(Cl)cccc2Cl)o1	-4	i	0.94	101	.	.	-1.2
Cc1ccc(C(=O)NCc2nnc(SCC(=O)Nc3ccccc3)n2C)cc1	0	i	1	34	-6	105	0.1
CCOc1ccc2nc(NC(=O)c3ccc(S(=O)(=O)N4CCOCC4)cc3)sc2c1	2	.	.	100	6	110	0.5

Laid out differently: 4 of the compounds above.
structure: CCCCc1nc2ccc(S(=O)(=O)O)cc2[nH]1
  PKD1 inh: . | HSV augment: i | HSV augment primary fold: 1.1 | RGS16-Gao: 101 | Insulin prom inh: . | Insulin prom inh cell count: . | GALR2 agonist: .
structure: CC(C)c1ccc(-c2c(C#N)c(N)nc(SCC(=O)N3CCCCCC3)c2C#N)cc1
  PKD1 inh: -1 | HSV augment: i | HSV augment primary fold: 0.89 | RGS16-Gao: 95 | Insulin prom inh: 7 | Insulin prom inh cell count: 95 | GALR2 agonist: -1.0
structure: COc1ccc2cc(C(c3nnnn3C3CCCC3)N3CCOCC3)c3nnnn3c2c1 (configuration not stated)
  PKD1 inh: -1 | HSV augment: i | HSV augment primary fold: 0.82 | RGS16-Gao: 104 | Insulin prom inh: . | Insulin prom inh cell count: . | GALR2 agonist: .
structure: CCCCCOc1ccccc1C(=O)NCCCCCC(=O)O
  PKD1 inh: . | HSV augment: i | HSV augment primary fold: 1 | RGS16-Gao: 100 | Insulin prom inh: . | Insulin prom inh cell count: . | GALR2 agonist: .

Profiles, looked up by structure. Screens in order: PKD1 inh, HSV augment, HSV augment primary fold, RGS16-Gao, Insulin prom inh, Insulin prom inh cell count, GALR2 agonist
Cn1c(COc2ccccc2)nnc1SCCN1CCOCC1 across the screens: -8, i, 0.86, 50, ., ., -1.8
CCOc1ccc(C(CC(=O)O)NC(=O)COc2ccccc2)cc1 (configuration not stated) across the screens: 2, i, 1, 103, 42, 108, -1.1
O=C(CSc1nc(C2CCCCC2)nc2ccccc12)N1CCCC1 across the screens: 2, i, 0.75, 101, ., ., .
Cc1ccc(-n2nc(C)c(/C=N/NC(=O)c3cccs3)c2Cl)cc1 across the screens: -6, i, 0.57, 107, ., ., 3.1
CCNC(=O)c1c(O)c2ccccc2[nH]c1=O across the screens: -5, i, 0.88, 103, 15, 71, -0.7
